# Cruzain Triton – inhibitors of Trypanosoma cruzi cruzain with detergent | purified cruzain, Z-FR-AMC fluorescence, 0.01% Triton | Potency, µM, without a hit: max response, negative = inhibition, usual class: inhibitors | 200,000 tested, 0.43% active | AID 1478; active = well fitted curve in the direction sought with a large enough effect; inconclusive = small, poorly fitted or top-dose-only effect, or another doubt; inactive = no such curve, though single readings can be large; an effect the other way counts as inactive or inconclusive;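 note: plate controls were neutral wells for no effect and buffer without enzyme for full effect; nearly all actives have a fitted effect of over 40% in size; top concentration of the series not given in the record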
# Target sequence (P25779 123-467 limits assumed): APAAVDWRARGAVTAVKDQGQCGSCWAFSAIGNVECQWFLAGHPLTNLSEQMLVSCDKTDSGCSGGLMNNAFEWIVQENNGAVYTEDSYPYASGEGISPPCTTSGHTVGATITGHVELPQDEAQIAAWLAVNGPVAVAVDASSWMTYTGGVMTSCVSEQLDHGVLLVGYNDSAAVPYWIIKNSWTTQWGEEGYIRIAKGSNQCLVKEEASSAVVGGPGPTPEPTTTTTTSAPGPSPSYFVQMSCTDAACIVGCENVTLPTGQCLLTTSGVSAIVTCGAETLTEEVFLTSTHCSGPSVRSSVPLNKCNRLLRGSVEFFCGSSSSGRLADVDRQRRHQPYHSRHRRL
#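 Enzyme 1.5 nM, Z-FR-AMC 2 uM, NaOAc 100 mM pH 5.5, DTT 5 mM, Triton X-100 0.01%; 15 min RT compound preincubation; kinetic ex360/em450, 60 s delta.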
# MARV entry inh – blocks Marburg virus binding to or entry into cells. Marburg virus pseudotyped entry inhibition, cell reporter; control for the full effect not named in the record; about a third of the inactives were read at about 46 µM. Potency, µM (top dose mostly 37.8 µM), inactives show at the top dose activity change, negative = inhibition, hits mostly inhibitors. 300,000 tested, 1.8% active; active = well fitted inhibition curve with a large enough effect; inconclusive = small, poorly fitted or top-dose-only effect, or effect the other way; inactive = flat fitted curve, though single readings scatter; tested in HEK293 cells; about a fifth of its hits are not listed in these tables; note: % is set by controls: 0 for no effect and ±100 for the full control effect; luciferase read-out
# LASV entry inh – inhibitors of Lassa virus binding or cell entry; 300,000 tested, 1.2% active; Lassa virus pseudotype entry inhibition, cell reporter; control for the full effect not named in the record; Potency, µM (series often up to 37.9 µM), inactives show at the highest dose activity change, negative = inhibition, actives largely listed as inhibitors; active means well fitted inhibition curve with a large enough effect; inconclusive means small, poorly fitted or top-dose-only effect, or effect the other way; inactive means flat fitted curve, though single readings scatter; tested in HEK293 cells; note: % is set by controls: 0 for no effect and ±100 for the full control effect; nearly all actives have a fitted effect of over 50% in size; luciferase read-out
# Cruzain inh noDet – cruzain (T. cruzi) inhibition without detergent; 200,000 tested, 2.3% active; Potency, µM, without a hit: max response, negative = inhibition, hits mostly inhibitors; purified cruzain, Z-FR-AMC fluorescence, no detergent; AID 1476; P25779; active = well fitted curve in the direction sought with a large enough effect; inconclusive = small, poorly fitted or top-dose-only effect, or another doubt; inactive = no such curve, though single readings can be large; an effect the other way counts as inactive or inconclusive;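 note: plate controls were enzyme without inhibitor for no effect and buffer without enzyme for full effect; nearly all actives have a fitted effect of over 40% in size; top concentration of the series not given in the record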
#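 Detergent-free condition (0.00005% Triton X-100) in acetate buffer pH 5.5 with DTT. 1.5 nM enzyme and compound were pre-mixed 15 min, then 2 uM Z-FR-AMC substrate added; reaction progress from fluorescence change between first and third reads (60 s).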
# StopGo reporter – FMDV 2A StopGo reporter, luciferase signal. human cells with a luciferase reporter of 2A StopGo recoding; control for the full effect not named in the record. Potency, µM (doses to about 57.9 µM), for inactives: at the highest dose signal change, negative = less light. 410,000 tested, 1.2% active; active = well fitted falling curve with a large enough effect; inconclusive = small, poorly fitted or top-dose-only effect; inactive = no such curve, though single readings can be large or run the other way; tested in HEK293T cells; note: % is set by controls: 0 for no effect and ±100 for the full control effect; nearly all actives have a fitted effect of over 45% in size; luciferase light after 4 h
# NS1 function inh – blocks influenza NS1 protein function. S. cerevisiae slowed by influenza A NS1, growth recovery by OD600. 270,000 tested, 0.4% active. Potency, µM (doses to about 46.1 µM), inactives show at the top dose activity, positive = more growth; note: actives are rising curves; nearly all actives have a fitted effect of over 50% in size
#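 Compounds were scored for reversing the slow growth caused by influenza A NS1 in S. cerevisiae, measured by optical density at 600 nm. Assay medium contained 2% galactose at pH 6.0; NS1-free yeast of the same strain were the positive control.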
# RE007 growth inh – less growth of the S. pombe RE007 Vpr strain | AID 651644 | Potency, µM (highest dose often 92.2 µM), for the others: at the highest dose activity change, negative = less growth | S. pombe RE007 Vpr strain, BacTiter-Glo ATP luminescence, 24 h; control for the full effect not named in the record | 360,000 tested, 0.21% active; active = well fitted falling curve with a large enough effect; inconclusive = small, poorly fitted or top-dose-only effect; inactive = no such curve, though single readings can be large or run the other way;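 note: % is set by controls: 0 for no effect and ±100 for the full control effect; nearly all actives have a fitted effect of over 50% in size; the assay follows cell death caused by Vpr and the record does not say whether a fall means rescue or toxicity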
#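 Fission yeast RE007 carrying one integrated HIV-1 vpr copy, seeded at OD 0.01 in PMG+AL medium with 23 nL pinned compound. Grown 24 h at 30 degrees; viability read by BacTiter-Glo luminescence after 5 min.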
# SARS PLpro yeast – inhibitors of SARS-CoV papain-like protease in yeast; S. cerevisiae expressing SARS-CoV PLpro, growth rescue; control for the full effect not named in the record; AID 485353; Potency, µM (top dose mostly 32.9 µM), for the others: at the highest dose activity, positive = growth rescue; 330,000 tested, 0.19% active; note: 0% is about no effect; nearly all actives have a fitted effect of over 55% in size; growth read by luminescence after 48 h
# An asterisk follows results filed as active; ? = inconclusive; . = no result given; & = joins results of further samples; [ ] = another dose, or the depositor's remark. Unless noted, calls come from the whole dose curve; as a rule, active means well fitted rising curve with a large enough effect; inconclusive means small, poorly fitted or top-dose-only effect; inactive means no such curve, though single readings can be large or run the other way. Potency is the fitted concentration of half-maximal effect. Outcome played no part in choosing rows; overall some 4.7% were active at least once.
SMILES,Cruzain Triton,MARV entry inh,LASV entry inh,Cruzain inh noDet,StopGo reporter,NS1 function inh,RE007 growth inh,SARS PLpro yeast
C[C@]1(O)CCC2C3CC[C@H]4C[C@@H](OC(=O)CNC(=O)CN)CC[C@]4(C)C3CC[C@@]21C (stereo partly specified),.,6.7%[46.1 µM],14.6%[46.1 µM],.,-4.1%,.,0.1%,-19.5%
CCOC(=O)c1cnc2c(CC)cccc2c1NCCCN1CCOCC1,.,.,.,.,-8.9%,-4.8%,-10.2%,4.6%
Cc1ccc(S(=O)(=O)c2cn(CC(=O)Nc3ccc4c(c3)OCO4)c3ccc(C)cc3c2=O)cc1,-5.8%,?,-1.7%[46.1 µM],?,7.5%,.,.,.
O=C(CNC(=O)c1ccco1)OCC(=O)c1cccc2ccccc12,-7.0%,6.0%,-10.9%,-20.1%,-8.4%,-62.5%,12.6%,.
Cc1ccc(N2C(=O)CSC2c2ccc3c(c2)OCO3)cc1 (stereo unspecified),-1.1%,-4.8%,12.4%,-5.2%,-4.4%,6.3%,-0.5%,27.3%
COc1ccc(Nc2nnc(SCC(=O)NC3CCS(=O)(=O)C3)s2)cc1 (stereo unspecified),.,23.5%[46.1 µM],?,.,20.9%,.,?,-0.4%
COc1ccccc1NC(=O)CSc1nnc(CCNC(=O)c2ccc(C)cc2)n1C,.,.,.,.,26.9%,-8.1%,-0.1%,0.6%
O=C(O)c1cccc(C(=O)O)n1,4.3%,.,.,8.8%,.,1.2%,.,-3.0%
O=C(Cc1cccc(C(F)(F)F)c1)NCc1cccnc1,.,.,.,.,-21.0%,5.5%,-1.3%,0.6%
CCOC(=O)c1cnc(-c2ccccc2)nc1Oc1ccc(OC)cc1,.,15.5%[46.1 µM],0.0%[46.1 µM],.,36.5%[activator],-3.1%,-1.6%,1.8%
CCCCSCCCNC(=O)c1cn(CC)c2ccc(S(=O)(=O)N3CCCCCC3)cc2c1=O,-5.6%,0.1%[46.1 µM],-25.8%[46.1 µM],5.6%,-4.9%,.,.,.
Cc1cccc(-c2cc3nc(C)cc(NCCCn4ccnc4)n3n2)c1,-2.8%,?,10.4%,9.7%,13.9%,-4.6%,-11.0%,10.8%
Cc1ccc2nc(N3C(=O)C(O)=C(C(=O)c4ccc(C)o4)C3c3cccc(O)c3)sc2c1 (stereo unspecified),.,8.3%[46.1 µM],0.0%,.,8.9%,.,-12.3%,4.6%
CCn1c(SCC(=O)N2CCN(c3ccccc3F)CC2)nnc1-c1ccoc1C,6.6%,-2.5%[46.1 µM],1.9%,8.9%,?,4.0%,4.0%,-1.4%
O=[N+]([O-])c1ccc(OCc2n[nH]c(=S)n2-c2ccccc2)cc1,.,-10.8%,14.6%,.,-20.7%,18.7%,3.9%,4.2%
O=C(Nc1cc(S(=O)(=O)N2CCOCC2)ccc1N1CCOCC1)c1cccs1,.,0.9%,4.1%,.,-18.7%,.,-5.6%,0.7%
COc1ccc(O)c(/C=N/c2sc(C)c(C)c2C#N)c1,0.5%,-10.8%,3.4%,?,18.0%,10.2%,0.1%,-8.5%
CCOC(=O)C1CCCN(C(=O)c2ccc3oc(Cc4ccccc4)nc3c2)C1 (stereo unspecified),.,.,.,.,40.5%[activator],-46.6%,-0.1%,-7.3%
CC(=O)Nc1nc(C)cs1,.,-19.4%&-19.4%[46.1 µM],8.1%[46.1 µM],.,30.9%[activator],.,8.0%,1.0%
Cc1nn(-c2ncc(C(F)(F)F)cc2Cl)c(=O)n1-c1ccccc1F,.,8.8%[46.1 µM],-1.5%,.,7.9%,.,-19.8%,0.1%
COc1cccc(C(=O)C2CN(C)CC2c2ccc(Cl)cc2)c1 (stereo unspecified),.,?,?,.,-18.4%,1.9%,-2.5%,-1.3%
CN1CCN(CCC(=O)Nc2cccc(F)c2)CC1,7.5%,7.0%,?,5.9%,-12.1%,2.7%,12.6%,6.2%
CCCC(C)C(=O)Nc1ccc(F)c(Cl)c1 (stereo unspecified),.,?,-19.2%[46.1 µM],.,-5.0%,.,-5.9%,-1.8%
O=C(C(Cl)Cl)N1CCN(Cc2ccccc2)CC1,0.1%,?,0.2%,-3.1%,-16.7%,2.4%,-12.2%,-12.8%
CSc1ccc(C2c3c(oc4ccccc4c3=O)C(=O)N2CCCN2CCOCC2)cc1 (stereo unspecified),-4.8%,?,31.8%[46.1 µM],9.0%,12.7%,.,.,.

# (cont.)
SMILES,Cruzain Triton,MARV entry inh,LASV entry inh,Cruzain inh noDet,StopGo reporter,NS1 function inh,RE007 growth inh,SARS PLpro yeast
CCOC(=O)C1=C(C)NC(=O)NC1c1ccsc1 (stereo unspecified),0.8%,14.8%,-9.0%,1.9%,-8.3%,4.5%,1.9%,5.5%
CCC(CC)C(=O)Nc1ccc2nc(SCC(=O)N3CCc4ccccc43)sc2c1,-5.9%,?,-12.6%[46.1 µM],-3.5%,?,.,.,.
CCCCC(=O)NC(c1ccc(OC)c(OC)c1)c1ccc2cccnc2c1O (stereo unspecified),.,3.16µM*,?,.,-7.3%,.,8.1%,.
CCCCCC(=O)NC(=S)NNC(=O)c1ccc([N+](=O)[O-])cc1,-2.0%,10.3%,-0.3%,2.7%,-22.2%,-7.0%,34.3%,-6.2%
CCNc1nc(Oc2c(Cl)cccc2Cl)cc(C(F)(F)F)n1,-5.5%,?,6.7%,-7.2%,-26.7%,-20.7%,?,-3.5%
COc1cccc(C(=O)NNC(=O)CCN2CCN(c3ccccc3)CC2)c1,.,4.0%,0.7%,.,-5.8%,.,20.4%,-1.3%
CCc1ccnc(NS(=O)(=O)c2ccc3c(c2)OCCO3)c1,.,?,16.2%,.,65.9%[activator],5.6%,-9.0%,-0.1%
CCc1noc(C)c1C(=O)N1CCC(CCC(=O)Nc2cccc(C)c2)CC1,.,?,?,.,-4.7%,-17.5%,-0.4%,-3.2%
O=C(Nc1ccc2[nH]c(=S)sc2c1)Nc1ccccc1F,.,.,.,.,47.3%[activator],7.1%,4.2%,1.4%
COCCNC(=O)CCCn1c(SCC(=O)Nc2cccc(C)c2)nc2c(sc3ccccc32)c1=O,1.7%,-0.3%[46.1 µM],-14.0%[46.1 µM],12.4%,-9.4%,.,.,.
Cc1cc(-c2n[nH]c(=S)n2CC(C)C)cs1,-3.1%,0.8%,?,-11.8%,-22.4%,2.0%,21.1%,?
COc1ccc(NC(=O)CCCn2c(=O)c3sccc3n(Cc3ccc(C)cc3)c2=O)cc1,1.5%,23.3%,14.9%,9.8%,?,23.7%,-17.1%,22.8%
CNS(=O)(=O)c1ccc2nc(NC(=O)/C=C/c3ccco3)sc2c1,.,-23.8%[46.1 µM],-16.0%[46.1 µM],.,1.4%,.,-13.2%,-5.8%
CC(C)Cc1nnc(NC(=O)CSc2nc(N)cc(=O)[nH]2)s1,-1.3%,0.4%,5.1%,1.9%,-20.7%,4.0%,12.9%,4.8%
COc1cc(C(=O)CCN2CCC(c3ccccc3)C2)cc(OC)c1OC (stereo unspecified),-19.7%,22.2%,3.8%,-3.7%,-34.1%,-39.1%,?,-22.8%
COc1ccc(-c2cc(=O)oc3c4c(ccc23)OCN(Cc2ccccc2)C4)cc1,-25.4%,?,18.4%[46.1 µM],25.1µM*,-21.7%,.,.,.
CCCS(=O)(=O)N1CCC(C(=O)NC2CCCCC2C)CC1 (stereo unspecified),-1.9%,5.2%,3.7%,4.7%,-0.5%,-3.7%,12.6%,2.1%
O=C(CSc1nnc(-c2ccco2)n1Cc1ccco1)N1CCOCC1,5.9%,-8.3%,6.3%,-10.4%,-18.7%,-2.4%,11.0%,-8.9%
COc1cccc(-n2cnc3scc(-c4cccs4)c3c2=O)c1,-3.2%,0.0%,3.9%,-14.5%,?,-6.0%,-7.1%,-9.8%
CC(=O)c1ccc(NC(=O)c2sc3nc(N4CCOCC4)c4c(c3c2N)CCCC4)cc1,.,.,.,.,5.7%,?,3.8%,-2.6%
COc1cccc(CNC(=O)c2cccnc2Sc2ccc(C)cc2C)c1,.,-19.6%[46.1 µM],-7.3%[46.1 µM],.,8.6%,-17.8%,11.4%,-4.4%
CC1(C)Cc2nc(NCCN3CCOCC3)c(C#N)cc2CO1,-1.6%,10.6%,-14.0%,0.0%,-8.8%,12.5%,4.8%,-3.2%
C=C(C)CNC(=S)N/N=C1\CCCCc2ccccc21,-7.3%,-31.2%[46.1 µM],?,-0.6%,-17.9%,-27.1%,-11.8%,-55.0%
CC(C)C(=O)N1C2CCC1CC(O)(c1ccc(F)cc1)C2 (stereo unspecified),1.0%,0.0%,6.4%,3.1%,10.1%,-13.3%,5.0%,5.8%
Nc1nc(=S)[nH]c2c1C1(CCCCC1)Cc1ccccc1-2,-1.7%,?,1.2%,-22.2%,-17.3%,7.6%,-3.1%,-4.6%

# Next part
SMILES,Cruzain Triton,MARV entry inh,LASV entry inh,Cruzain inh noDet,StopGo reporter,NS1 function inh,RE007 growth inh,SARS PLpro yeast
CCN(CC)C(=O)c1sc(NC(=O)c2c(OC)cccc2OC)c(C#N)c1C,.,?,-16.6%,.,-10.5%,-1.2%,-1.0%,-2.5%
CCc1nnc(NC(=O)CSc2nnc(-c3ccco3)n2CC)s1,8.7%,0.1%,3.3%,-3.0%,-12.2%,-3.1%,5.1%,4.3%
COC(=O)C(=C/C=C/c1cccnc1)C(=O)OC,.,-0.1%[46.1 µM],0.9%,.,-22.8%,-2.9%,-6.1%,-1.2%
O=C(Cc1nc(-c2cnccn2)no1)NNC(=O)Nc1ccccc1,.,3.0%,?,.,-14.9%,8.9%,13.5%,-0.4%
O=C(Cn1cc(C(F)(F)F)ccc1=O)N/N=C/c1ccc(O)cc1,.,.,.,.,-9.6%,2.4%,-8.7%,-2.1%
CCC(C)[C@H](NC(=O)N1CC(=O)Nc2ccccc21)C(=O)N[C@@H](C(=O)O)c1ccccc1 (stereo partly specified),.,9.2%[46.1 µM],?,.,4.6%,-5.1%,10.5%,.
O=C(Cc1ccccc1)Nc1ccc2c(c1)CCC2,.,-23.8%[46.1 µM],?,.,78.5%[activator],.,7.3%,-1.9%
COC(=O)C(CCSC)NC(=O)CNS(=O)(=O)c1ccc(F)cc1 (stereo unspecified),5.8%,11.4%,-1.0%,0.6%,-23.9%,20.0%,-4.2%,4.4%
CC1Cc2ccccc2N1C(=O)CNc1cccc(S(=O)(=O)N2CCCC2)c1 (stereo unspecified),.,-0.7%[46.1 µM],-18.2%,.,?,0.2%,-8.6%,0.3%
Cn1c(-c2ccco2)nc2cc3ccccc3cc21,-25.1%,?,?,2.0%,-63.7%,-91.9%,?,-24.7%
Cc1cccc(C)c1NC(=O)CN1C(=O)N(C)Cc2ccccc21,.,-25.4%[46.1 µM],24.9%[46.1 µM],.,1.6%,2.5%,-5.4%,-0.8%

# High-throughput results: PubChem, National Center for Advancing Translational Sciences (NCATS)
